# SARS PLP yeast: qHTS of Yeast-based Assay for SARS-CoV PLP; 330,000 compounds, 0.19% hits; Potency, µM (highest dose often 32.9 µM), for the others: at the highest dose activity, positive = growth rescue; S. cerevisiae expressing SARS-CoV PLpro, growth rescue; control for the full effect not named in the record; active means well fitted rising curve with a large enough effect; inconclusive means small, poorly fitted or top-dose-only effect; inactive means no such curve, though single readings can be large or run the other way; note: 0% is about no effect; nearly all actives have a fitted effect of over 55% in size; growth read by luminescence after 48 h
# LASV entry inh: qHTS for Inhibitors of binding or entry into cells for Lassa Virus; Potency, µM (highest dose often 37.9 µM), for inactives: at the highest dose activity change, negative = inhibition, usual class: inhibitors; 300,000 compounds, 1.2% hits; Lassa virus pseudotype entry inhibition, cell reporter; control for the full effect not named in the record; active means well fitted inhibition curve with a large enough effect; inconclusive means small, poorly fitted or top-dose-only effect, or effect the other way; inactive means flat fitted curve, though single readings scatter; tested in HEK293 cells; note: % is set by controls: 0 for no effect and ±100 for the full control effect; nearly all actives have a fitted effect of over 50% in size; luciferase read-out
# RE007 growth inh: qHTS Assay for Inhibitors of the HIV-1 protein Vpr; 360,000 compounds, 0.21% hits; Potency, µM (doses to about 92.2 µM), without a hit: at the top dose activity change, negative = less growth; AID 651644, 2012; S. pombe RE007 Vpr strain, BacTiter-Glo ATP luminescence, 24 h; control for the full effect not named in the record; active = well fitted falling curve with a large enough effect; inconclusive = small, poorly fitted or top-dose-only effect; inactive = no such curve, though single readings can be large or run the other way;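 note: % is set by controls: 0 for no effect and ±100 for the full control effect; nearly all actives have a fitted effect of over 50% in size; the assay follows cell death caused by Vpr and the record does not say whether a fall means rescue or toxicity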
#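 Fission yeast strain RE007, carrying one chromosomally integrated HIV-1 vpr copy, was seeded at OD 0.01 in PMG+AL medium with 23 nL pinned compound. After 24 h at 30 °C and 99% humidity, viability was read by BacTiter-Glo luminescence.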
# NS1 inh: qHTS Assay for Inhibitors of Influenza NS1 Protein Function. 270,000 compounds, 0.4% hits. S. cerevisiae slowed by influenza A NS1, growth recovery by OD600. AID 2326, 2010. Potency, µM (doses to about 46.1 µM), without a hit: at the highest dose activity, positive = more growth; active means well fitted rising curve with a large enough effect; inconclusive means small, poorly fitted or top-dose-only effect; inactive means no such curve, though single readings can be large or run the other way; note: nearly all actives have a fitted effect of over 50% in size
#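 In this qHTS, NS1 from influenza A is expressed in budding yeast, where it slows growth. Cells are switched from glucose to 2% galactose medium (pH 6.0, -URA), treated with compound, and growth recovery is read at OD600.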
# Cruzain inh Det: qHTS Assay for Promiscuous and Specific Inhibitors of Cruzain (with detergent); Potency, µM, without a hit: max response, negative = inhibition, usual class: inhibitors; AID 1478, 2009; purified cruzain, Z-FR-AMC fluorescence, 0.01% Triton; 200,000 compounds, 0.43% hits;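 note: plate controls were neutral wells for no effect and buffer without enzyme for full effect; nearly all actives have a fitted effect of over 40% in size; top concentration of the series not given in the record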
# Target sequence (P25779 123-467 limits assumed): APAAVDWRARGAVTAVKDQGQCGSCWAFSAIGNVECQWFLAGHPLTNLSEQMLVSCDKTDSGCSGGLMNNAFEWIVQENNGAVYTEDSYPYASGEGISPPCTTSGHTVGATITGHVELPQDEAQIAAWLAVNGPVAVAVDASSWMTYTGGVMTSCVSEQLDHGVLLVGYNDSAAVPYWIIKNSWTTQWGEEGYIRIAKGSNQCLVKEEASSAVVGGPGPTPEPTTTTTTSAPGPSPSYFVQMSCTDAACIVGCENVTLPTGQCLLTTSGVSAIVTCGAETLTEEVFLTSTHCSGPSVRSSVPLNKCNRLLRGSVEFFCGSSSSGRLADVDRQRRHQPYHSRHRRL
#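 Compounds were screened in titration against cruzain (1.5 nM) with 0.01% Triton X-100 to counter colloidal aggregation. Activity was the AMC fluorescence increase over 60 s after adding 2 uM Z-FR-AMC at pH 5.5.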
# Cruzain noTriton: qHTS Assay for Promiscuous and Specific Inhibitors of Cruzain (without detergent). Cruzipain (Trypanosoma cruzi), P25779. purified cruzain, Z-FR-AMC fluorescence, no detergent. Potency, µM, without a hit: max response, negative = inhibition, most hits filed as inhibitors. 200,000 compounds, 2.3% hits;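 note: plate controls were enzyme without inhibitor for no effect and buffer without enzyme for full effect; nearly all actives have a fitted effect of over 40% in size; top concentration of the series not given in the record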
#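 Purified cruzain at 1.5 nM, pre-incubated 15 min with compound at room temperature in 100 mM sodium acetate pH 5.5, 5 mM DTT, 0.00005% Triton X-100. Reaction started with 2 uM Z-FR-AMC; AMC fluorescence increase over 60 s gives rate.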
# Marburg entry inh: qHTS for inhibitors of binding or entry into cells for Marburg Virus; 300,000 compounds, 1.8% hits; Marburg virus pseudotyped entry inhibition, cell reporter; control for the full effect not named in the record; about a third of the inactives were read at about 46 µM; Potency, µM (titrated, usually from 37.8 µM), inactives show at the top dose activity change, negative = inhibition, actives largely listed as inhibitors; AID 540276, 2011; active = well fitted inhibition curve with a large enough effect; inconclusive = small, poorly fitted or top-dose-only effect, or effect the other way; inactive = flat fitted curve, though single readings scatter; tested in HEK293 cells; about a fifth of its hits are not listed in these tables; note: % is set by controls: 0 for no effect and ±100 for the full control effect; luciferase read-out
# StopGo reporter: High Throughput Screening for Foot and Mouth Disease Virus Antivirals. 410,000 compounds, 1.2% hits. human cells with a luciferase reporter of 2A StopGo recoding; control for the full effect not named in the record. AID 1159524, 2015. Potency, µM (highest dose often 57.9 µM), without a hit: top-dose signal change, negative = less light; active = well fitted falling curve with a large enough effect; inconclusive = small, poorly fitted or top-dose-only effect; inactive = no such curve, though single readings can be large or run the other way; tested in HEK293T cells; note: % is set by controls: 0 for no effect and ±100 for the full control effect; nearly all actives have a fitted effect of over 45% in size; luciferase light after 4 h
# * hit, by the source's call; ? = inconclusive; . = not tested or not shown; & = joins results of further samples; [ ] = another dose, or the depositor's remark. Unless noted, calls come from the whole dose curve; as a rule, active = well fitted curve in the direction sought with a large enough effect; inconclusive = small, poorly fitted or top-dose-only effect, or another doubt; inactive = no such curve, though single readings can be large; an effect the other way counts as inactive or inconclusive. Potency is the fitted concentration of half-maximal effect.
# The first ten compounds (preview)
SMILES,SARS PLP yeast,LASV entry inh,RE007 growth inh,NS1 inh,Cruzain inh Det,Cruzain noTriton,Marburg entry inh,StopGo reporter
COc1cc2c3cc1Oc1cc(ccc1O)C[C@@H]1c4c(cc(OC)c(O)c4Oc4ccc(cc4)C[C@H]3N(C)CC2)CCN1C,-9%,?,5%[18.4 µM],3%,-2.7%,10%,1.8µM*,-26%
O=C(NNC1=Nc2ccccc2SC1)c1ccccc1F,1%,?,11%,-1%,.,.,?,-3%
CC(C)N1CCC(N2CCN(C3CCCC3)CC2CCO)CC1 (stereo not given),0%,14%,-5%,8%,.,.,-11%[46.1 µM],-1%
COc1cc(C(CCN2CCCCC2)c2c(OC)cc(OC)c3c(-c4ccccc4)cc(=O)oc23)cc(OC)c1OC (stereo not given),1%,.,-3%,-6%,.,.,.,5%
CCOC(=O)CNC(c1ccccc1)c1cc(Br)ccc1NC(=O)OCC (stereo not given),-24%,?,7%,-53%,-3.3%,18%,-23%,0%
Cc1ccc(-c2nc(CS(=O)CC(=O)NCc3ccc(F)cc3)c(C)o2)cc1 (stereo not given),0%,.,-8%,?,.,.,.,-11%
CCOc1ccc2nc(C)cc(Nc3ccc(N4CCOCC4)cc3)c2c1,?,-4%,.,-2%,-7.9%,-10%,?,.
O=C(O)C(Cc1ccccc1)N1C(=O)/C(=C/c2cccnc2)SC1=S (stereo not given),-1%,-8%,0%,6%,.,.,3%[46.1 µM],-25%
CCCn1nc(C(=O)N(C)CC(=O)Nc2ccc(OCC)c(OCC)c2)c2ccccc2c1=O,-6%,9%,-8%,.,.,.,-2%,0%
N#CC(C(=O)c1ccccc1)=C1SCCS1,-1%,?,-6%,1%,.,.,30%,28%

# All compounds of this part, repeating the preview:
SMILES,SARS PLP yeast,LASV entry inh,RE007 growth inh,NS1 inh,Cruzain inh Det,Cruzain noTriton,Marburg entry inh,StopGo reporter
COc1cc2c3cc1Oc1cc(ccc1O)C[C@@H]1c4c(cc(OC)c(O)c4Oc4ccc(cc4)C[C@H]3N(C)CC2)CCN1C,-9%,?,5%[18.4 µM],3%,-2.7%,10%,1.8µM*,-26%
O=C(NNC1=Nc2ccccc2SC1)c1ccccc1F,1%,?,11%,-1%,.,.,?,-3%
CC(C)N1CCC(N2CCN(C3CCCC3)CC2CCO)CC1 (stereo not given),0%,14%,-5%,8%,.,.,-11%[46.1 µM],-1%
COc1cc(C(CCN2CCCCC2)c2c(OC)cc(OC)c3c(-c4ccccc4)cc(=O)oc23)cc(OC)c1OC (stereo not given),1%,.,-3%,-6%,.,.,.,5%
CCOC(=O)CNC(c1ccccc1)c1cc(Br)ccc1NC(=O)OCC (stereo not given),-24%,?,7%,-53%,-3.3%,18%,-23%,0%
Cc1ccc(-c2nc(CS(=O)CC(=O)NCc3ccc(F)cc3)c(C)o2)cc1 (stereo not given),0%,.,-8%,?,.,.,.,-11%
CCOc1ccc2nc(C)cc(Nc3ccc(N4CCOCC4)cc3)c2c1,?,-4%,.,-2%,-7.9%,-10%,?,.
O=C(O)C(Cc1ccccc1)N1C(=O)/C(=C/c2cccnc2)SC1=S (stereo not given),-1%,-8%,0%,6%,.,.,3%[46.1 µM],-25%
CCCn1nc(C(=O)N(C)CC(=O)Nc2ccc(OCC)c(OCC)c2)c2ccccc2c1=O,-6%,9%,-8%,.,.,.,-2%,0%
N#CC(C(=O)c1ccccc1)=C1SCCS1,-1%,?,-6%,1%,.,.,30%,28%
COc1cc(OC)cc(C(=O)NC(C)c2cnn(-c3ccccc3C)c2C)c1 (stereo not given),0%,.,31%,-2%,.,.,.,2%
O=C(COc1cccc(C(F)(F)F)c1)Nc1ccc(S(=O)(=O)N2CCCC2)cc1,7%,-10%,-10%,-100%,-11%,-2%,-17%,?
CCN(CC(=O)Nc1ccc2c(c1)OCCO2)C(=O)CC(NC(C)=O)c1ccccc1 (stereo not given),.,?,13%,.,.,.,-2%,9%
CCN(CC)c1ccc(C(=O)NCc2ccc3c(c2)CCN3C(=O)c2ccccc2)cc1,.,-6%[46.1 µM],.,.,1.8%,3%,.,-29%
O=C1CCN(C(=O)Nc2cccc(Cl)c2)N1,-15%,-17%,-11%,-19%,2.1%,-8%,30%,-20%
O=C(CS(=O)(=O)Cc1ccccc1)N1CCN(C(=O)c2ccco2)CC1,1%,-10%,-15%,5%,-6.1%,-7%,3%,5%
N#Cc1sc(NCc2ccccn2)nc1Cl,-2%,0%[46.1 µM],5%,4%,.,.,9%[46.1 µM],7%
Cc1nnc(SCCc2ccccc2)[nH]c1=O,4%,21%,-9%,-5%,-1.5%,-10%,-3%,-18%
COc1ccc(N(C)C(=O)c2cc3c(s2)-c2c(C)cccc2OC3)c(OC)c1,-3%,.,-6%,-1%,-7.4%,-11%,-1%&-1%[46.1 µM],?
CC(C)CCN1C(=O)CCC1(C)C(=O)NC1CCCCCCC1 (stereo not given),-5%,6%,18%,-4%,-5.2%,17%,-5%,-25%
Cc1ccc(NC(=O)c2ccc(N3C(=O)C4CC=C(Cl)CC4C3=O)cc2)cc1 (stereo not given),5%,-5%,5%,-5%,-5.2%,-8%,26%,.
CCN(CC)CCCN=Cc1c(O)n(Cc2ccc(F)cc2)c(=O)[nH]c1=O,10%,-3%,12%,0%,1.8%,-2%,4%,-17%
CCCn1c(=N)c(C(=O)NCc2ccccc2)cc2c(=O)n3cccc(C)c3nc21,.,17%[46.1 µM],.,.,-0.8%,-1%,.,-20%
O=C(CCc1ccccn1)N1CCCC(CNS(=O)(=O)c2cccs2)C1 (stereo not given),-1%,13%[46.1 µM],-9%,5%,.,.,-6%[46.1 µM],10%
Cc1cc(OC(=O)c2ccccc2F)c([N+](=O)[O-])c(=O)[nH]1,26%,.,45%,20%,.,.,.,-1%
CN(CCc1ccccn1)C1CCCN(S(=O)(=O)c2ccc(F)c(Cl)c2)C1 (stereo not given),4%,5%[46.1 µM],1%,0%,.,.,-20%[46.1 µM],-10%
CC(/C=C/c1ccccc1F)=N\NC(=O)c1ccc(Cl)cc1,-1%,-6%,-9%,7%,.,.,7%[46.1 µM],-15%
N#C/C=C\Oc1ccc(Cl)cc1N,-23%,-14%,-6%,-112%,0.0%,-6%,-15%,?
c1coc(-c2nc3c4c5c(sc4ncn3n2)CCCC5)c1,-10%,11%,2%,14%,5.6%,-11%,?,18%
Cc1ccc(-c2nc3ccccn3c2NC(=O)c2ccco2)cc1,?,15%,2%,-7%,-2.4%,-5%,8%,.
CCOc1ccc(NC(=O)COC(=O)C23CC4CC(CC(C4)C2)C3)c([N+](=O)[O-])c1,10%,7%,-3%,-2%,-7.3%,-6%,?,0%
O=C(NC1CCS(=O)(=O)C1)c1cnccn1 (stereo not given),14%,.,.,-1%,3.6%,5%,.,-3%
O=C(Oc1coc(CSc2ncccn2)cc1=O)c1cccc([N+](=O)[O-])c1,-7%,2%[46.1 µM],-3%,.,.,.,?,-17%
CCOc1ccc(CNC(=O)c2cc3ccccn3n2)cc1,.,?,.,.,-0.8%,3%,.,64%[activator]
CCN(CC)C(=S)SCC(=O)Nc1ccc(F)cc1,-26%,?,-17%,-52%,1.8%,2%,?,-10%
CCOC(=O)c1cnc(SC2CC(=O)N(c3cccc(OC)c3)C2=O)nc1N (stereo not given),-8%,-11%,5%,13%,3.4%,-6%,13%,-8%
CCOc1ccc(-c2nn(CC(=O)NC3CCCCC3)c3c2cnc2ccc(C)cc23)cc1,.,-11%[46.1 µM],.,.,-2.1%,-1%,.,-6%
CC(C)=C1SC(N2CCN(Cc3ccccc3)CC2)=NC1=O,4%,?,-8%,5%,2.8%,0%,?,5%
Cc1ccc(-n2nc3ccc(N)cc3n2)cc1,-11%,11µM*,-10%,2%,-9.6%,-22%,?,11%
Cc1c(CNC2CCCCC2)c(C(=O)O)c(C)n1Cc1ccc(F)cc1,.,23%[46.1 µM],.,.,-2.2%,6%,1%[46.1 µM],-12%
Cc1ccc(S(=O)(=O)N[C@@H](Cc2ccccc2)C(=O)N2CCC(C(=O)N[C@@H](CCC(N)=O)C(=O)O)CC2)cc1,1%,?,2%,1%,.,.,-2%,17%
COc1ccccc1C(=O)N/C(=C\c1cn(S(=O)(=O)N(C)C)c2ccccc12)C(=O)N1CCCCC1,-1%,.,3%,9%,.,.,.,18%
O=C(c1ccc2c(c1)C(=O)N(c1ccc(Cl)cc1)C2=O)N1CCN(c2ccccn2)CC1,.,-5%,8%,-6%,.,.,-24%,6%
O=C(CN1C(=O)CCC1=O)Nc1nc(-c2nc3ccccc3s2)cs1,5%,.,9%,-17%,-14%,?,.,48%[activator]
C=CCOc1ccc(CNC(C)(C)C)cc1OC,1%,-3%,2%,-1%,2.9%,6%,-10%,-8%
Cc1nnc(NC(=O)c2oc3cc(C)c(C)cc3c2C)s1,7%,.,.,10%,5.1%,-6%,1%,.
CCOc1ccc(CN2CCN(Cc3cnn(CC)c3C)CC2CCO)cc1 (stereo not given),1%,.,4%,0%,.,.,.,2%
CCC(=O)OCC(=O)c1c(N)n(Cc2ccccc2)c(=O)n(C)c1=O,-1%,0%,-14%,10%,3.2%,-1%,-4%,-1%

# Source: PubChem
